Compound activity: PubChem, ICCB-Longwood Screening Facility, Harvard Medical School
Choline anaer gr = choline-fed anaerobic bacterial growth inhibition; AID 1963822; Gram-negative bacterium anaerobic choline minimal medium, absorbance growth; active compounds read low; many inactives read as strong as hits in the columns shown; 0.2% of 55,000 active; calls only;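 active = growth z-score on choline under -2 at 7 or 20 h with little or no fall on glycerol, limits in tiers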;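 note: stock transfer was 300 nL into about 50 µL; the organism is E. coli; final concentration not given here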
Choline anaer gr early = second read-out of Choline anaer gr, no call of its own (marks repeat the call); z-score; measured here: choline growth z-score, timepoint 1;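 score of optical density at 7 h as mean of two plates; lower means less growth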
* hit, by the source's call; i = inactive; & = joins results of further samples.

1: Cc1ccccc1-c1nc2scc(CCNC(=O)c3ccc(F)c(F)c3)n2n1
2: CCOC(=O)c1ccc(N2C(=O)C(Oc3ccccc3C)C2c2ccc(C(=O)OC)cc2)cc1 (stereo unspecified)
3: Cc1cc2c(cc1S(=O)(=O)NC(C)(C)C)OCC(=O)N2Cc1noc(C2CC2)n1
4: CCOC(=O)c1nc2c3nsnc3ccc2n(CC)c1=O
5: Cc1cc(C)cc(Nc2cc(-c3ccccc3)nc(C)n2)c1
6: O=S(=O)(c1ccc(-c2noc(-c3cnccn3)n2)cc1)N1CCOCC1
7: COC(=O)CN(c1nc2nc(C)cc(C)n2n1)S(=O)(=O)c1ccccc1
8: CN(C(=O)CSc1nc2c(-c3ccccc3)csc2c(=O)n1C)c1ccccc1

| compound no. | 1 | 2 | 3 | 4 | 5 | 6 | 7 | 8 |
| --- | --- | --- | --- | --- | --- | --- | --- | --- |
| Choline anaer gr | i | i | i | i | i | i | i | i |
| Choline anaer gr early | -1.4 | 0.51 | -1.8 | -0.21 | -0.45 | -1.1 | 0.22 | 0.19 |

9: Cc1[nH]c(C(=O)N2CCC(CC(=O)NCc3ccc(F)cc3)CC2)c(C)c1C(=O)OC(C)C
10: Cc1cc(NCC(C)C)n2nc(C(F)(F)F)c(-c3ccc(F)cc3)c2n1
11: COC(=O)CSc1nnc(C)c2c(C)n(-c3ccc(Cl)cc3)nc12
12: CC(C)(C=O)Cc1cc(C(C)(C)C)c(O)c(C(C)(C)C)c1
13: COC(=O)c1c[nH]n2c(=O)cc(CSc3nnc4c5ccccc5nc(-c5ccccc5)n34)nc12
14: Cc1c(C(=O)Nc2ccccc2)nnn1-c1ccc2noc(-c3ccccc3)c2c1
15: COc1cc(NS(=O)(=O)c2c(C)sc(C)c2-c2cc(C(F)(F)F)on2)cc(OC)c1
16: COc1ccc(C(=O)CN2C(=O)COc3ccccc3C2=O)cc1

| compound no. | 9 | 10 | 11 | 12 | 13 | 14 | 15 | 16 |
| --- | --- | --- | --- | --- | --- | --- | --- | --- |
| Choline anaer gr | i | i | i | i | i | i | i | i |
| Choline anaer gr early | 0.28 | 1.6 | -0.25 | 1.1&0.75 | 1.1 | 0.23 | -1.2 | -1.6 |

Complete entries, looked up by structure. Values in the order: Choline anaer gr, Choline anaer gr early
Cc1[nH]c(C(=O)N2CCC(CC(=O)NCc3ccc(F)cc3)CC2)c(C)c1C(=O)OC(C)C reads i, 0.28
COc1cc(NS(=O)(=O)c2c(C)sc(C)c2-c2cc(C(F)(F)F)on2)cc(OC)c1 reads i, -1.2
COC(=O)c1c[nH]n2c(=O)cc(CSc3nnc4c5ccccc5nc(-c5ccccc5)n34)nc12 reads i, 1.1
Cc1c(C(=O)Nc2ccccc2)nnn1-c1ccc2noc(-c3ccccc3)c2c1 reads i, 0.23

Next results.
17: O=C(NC1CCCCC1)N1CCN(c2ccc(-c3noc(C4CCC4)n3)cc2)CC1
18: CCOC(=O)CNC(=O)N1CCc2cc(S(=O)(=O)N3CCC(C)CC3)ccc21
19: Cn1nnc2cc(-c3noc(CNC(=O)Cc4ccccc4)n3)ccc21
20: Cc1nc(-c2nnn(-c3ccccc3)c2C)sc1C(=O)NCc1ccccc1
21: CCCCn1c(=O)[nH]c2c(C(=O)N3CCC4(CC3)OCCO4)snc2c1=O
22: Cc1ccc(NC(=O)Cn2c(=O)c(CCC(=O)NC3CCCC3)nc3ccccc32)cc1C
23: Cc1ccc2[nH]cc(NC(=O)N3CC=CCC3)c(=O)c2c1
24: CCOC(=O)CNC(=O)N(C)CCc1noc(C2CCCCC2)n1

| compound no. | 17 | 18 | 19 | 20 | 21 | 22 | 23 | 24 |
| --- | --- | --- | --- | --- | --- | --- | --- | --- |
| Choline anaer gr | i | i | i | i | i | i | i | i |
| Choline anaer gr early | -0.12 | -0.33 | 0.14 | 0.46 | 0.38 | 0.37 | -0.15 | -0.45 |

25: COc1ccc(Cl)cc1NC1=C(C(N)=O)S(=O)(=O)c2ccccc21
26: O=C(c1cnn2cc(Br)cnc12)N1CCCC1c1ccc(F)cc1 (stereo unspecified)
27: Cc1cccc(N2CCN(c3nc4ccccc4nc3C(F)(F)F)CC2)c1C
28: COc1ccc(C(=O)N(CCCN2CCOCC2)CCC(=O)N2CCNCC2)cc1
29: CCn1nccc1C1CCCN1S(=O)(=O)c1ccccc1 (stereo unspecified)
30: COc1cccc(-c2cc(-c3nc(-c4ccc5c(c4)OCO5)no3)[nH]n2)c1
31: CC1=C(C(=O)Nc2ccc(Cl)cc2)C2(CCN(S(C)(=O)=O)CC2)OC1=O
32: O=C(CC1CCN(C(=O)c2cn(-c3ccccc3)nc2-c2ccccc2)CC1)Nc1ccc(F)cc1

| compound no. | 25 | 26 | 27 | 28 | 29 | 30 | 31 | 32 |
| --- | --- | --- | --- | --- | --- | --- | --- | --- |
| Choline anaer gr | i | i | i | i | i | i | i | i |
| Choline anaer gr early | -1.4 | -1.9 | -0.14 | -2 | -0.18 | 1.1 | -0.48 | -0.02 |

33: COc1ccc(CNC(=O)c2cccc(N3CCCS3(=O)=O)c2)cc1OC
34: CCSc1ncc2c(=O)n(CC(=O)N3CCCc4ccccc43)cnc2n1
35: N#CC1=CN(c2ccc(C#N)cc2)c2ccc(F)cc2S1(=O)=O
36: CC(=O)N1c2ccccc2CC1C(=O)NCCc1c[nH]c2ccccc12 (stereo unspecified)
37: COc1ccc(-c2nc3cnccn3c2Nc2ccc3c(c2)OCCO3)cc1OC
38: CCCS(=O)(=O)N1CCCC1c1ccc(Cl)cc1 (stereo unspecified)
39: Cc1cccc(-c2ccc(C(=O)NC3CCCc4ccccc43)cn2)c1 (stereo unspecified)
40: CC(C)c1cc(C2CCCN2Cc2cc(F)ccc2F)on1 (stereo unspecified)

| compound no. | 33 | 34 | 35 | 36 | 37 | 38 | 39 | 40 |
| --- | --- | --- | --- | --- | --- | --- | --- | --- |
| Choline anaer gr | i | i | i | i | i | i | i | i |
| Choline anaer gr early | -0.94 | 1.3 | -0.72 | 0.34 | -0.62 | 0.42 | -1.1 | -0.89 |

41: CCc1ccc(NC(=O)N2CCN(S(=O)(=O)c3cc4c(cc3Cl)NC(=O)C(C)O4)CC2)cc1 (stereo unspecified)
42: CC1(C)C(=O)N(CCN2CCC(C(=O)c3ccc(F)cc3)CC2)c2ccccc21
43: Cc1ccc(NC(=O)CN2C(=O)C(C)CSc3ccc(S(=O)(=O)N4CCCC4)cc32)cc1C (stereo unspecified)
44: CN(C)CCNC(=O)c1ccc(-c2nc(CCN(C)C(=O)Nc3ccccc3)no2)cc1
45: O=C(CCn1c(N2CCCCC2)nc2ccsc2c1=O)NC1CCCC1
46: Cc1ccc(-c2nc(Cn3nnc(-c4nc(-c5ccc(OC(C)C)cc5)no4)c3C)c(C)o2)cc1
47: CN1CCCN(C(=O)CCc2cn(C)nc2-c2ccc(F)cc2)CC1
48: CCn1cc(C(CNC(=O)Nc2ccc(Br)c(C)c2)c2cccnc2)c2ccccc21 (stereo unspecified)

| compound no. | 41 | 42 | 43 | 44 | 45 | 46 | 47 | 48 |
| --- | --- | --- | --- | --- | --- | --- | --- | --- |
| Choline anaer gr | i | i | i | i | i | i | i | i |
| Choline anaer gr early | -0.11 | 0.08 | -0.41 | 0.62 | -0.42 | -0.41 | -1.1 | 1.1 |

49: Cc1c(Cl)cccc1NC(=O)CCc1nc(CSc2nc3ccccc3s2)no1
50: COCCn1c(CN2CCN(C(=O)Nc3cc(Cl)ccc3C)CC2)nc2ccccc2c1=O
51: COc1ccc(-c2c(C)nn3c(N4CCC(C(=O)NC5CC5)CC4)cc(C)nc23)cc1OC
52: COc1ccc(-c2cc3c(=O)n(CC(=O)N4CCN(c5cccc(C)c5C)CC4)ncn3n2)cc1
53: Cc1ccc(C)c(N2CCN(S(=O)(=O)c3cc(-c4nnc(C5CC5)o4)co3)CC2)c1
54: CCC(=O)Nc1ccccc1-c1nnc(SC(C)C(=O)Nc2ccccc2Cl)[nH]c1=O (stereo unspecified)
55: CC(C)N1C(=O)c2ccccc2Sc2cc(-c3noc(C4CC4)n3)ccc21
56: Fc1cccc(-c2nnc3sc(CCCc4ccccc4)nn23)c1

| compound no. | 49 | 50 | 51 | 52 | 53 | 54 | 55 | 56 |
| --- | --- | --- | --- | --- | --- | --- | --- | --- |
| Choline anaer gr | i | i | i | i | i | i | i | i |
| Choline anaer gr early | -0.59 | -0.18 | -0.82 | 0.92 | 0.36 | 0.75 | 0.43 | 2.8 |

57: Cc1cccc(NC(=O)CCCN2CCSc3ccccc32)c1C
58: CC(C)CC(CCC(=O)Nc1nccs1)C(=O)O (stereo unspecified)
59: CC1(C)CCC(NC(=O)[C@@H](N)CCC(=O)O)CC1
60: Cn1c(=O)n(-c2ccc(F)cc2)c2nc(-c3ccc(Br)cc3)nc(C(N)=O)c21
61: CCC(C)NC(=O)N1CCCC1c1cc(C)no1 (stereo unspecified)
62: Cc1nc2n(c(=O)c1C)CCN2CC(=O)NCc1ccco1
63: O=C(Nc1ccc2nc(N3CCN(C4CCCCC4)CC3)cc(C(=O)O)c2c1)c1ccccc1Cl
64: COc1ccc(NC(=O)C2CCN(c3cc(=O)n(C)c(=O)n3C)CC2)cc1Cl

| compound no. | 57 | 58 | 59 | 60 | 61 | 62 | 63 | 64 |
| --- | --- | --- | --- | --- | --- | --- | --- | --- |
| Choline anaer gr | i | i | i | i | i | i | i | i |
| Choline anaer gr early | -0.66 | 0.35 | -0.04 | 0.18 | 0.75 | 0.59 | 0.02 | 0.92 |

Reprinted from the part before: 4 compounds; new compounds follow.
61: CCC(C)NC(=O)N1CCCC1c1cc(C)no1 (stereo unspecified)
62: Cc1nc2n(c(=O)c1C)CCN2CC(=O)NCc1ccco1
63: O=C(Nc1ccc2nc(N3CCN(C4CCCCC4)CC3)cc(C(=O)O)c2c1)c1ccccc1Cl
64: COc1ccc(NC(=O)C2CCN(c3cc(=O)n(C)c(=O)n3C)CC2)cc1Cl
65: CC(O)C(O)[C@H]1CNc2nc(N)[nH]c(=O)c2N1 (stereo partly specified)
66: O=C(O)CSCC(=O)NC1CCSC1=O (stereo unspecified)
67: NC(=O)c1ccccc1NC(=O)Cc1csc2nc(-c3ccc(F)cc3)cn12
68: Cc1ccc(-c2nn(-c3ccccc3)cc2CCC(=O)NCc2ccccc2Cl)cc1
69: Cc1ccc2c(c1)n(Cc1cccc(F)c1)c(=O)c1nc(C(=O)Nc3ccc(N4CCOCC4)cc3)nn12

| compound no. | 61 | 62 | 63 | 64 | 65 | 66 | 67 | 68 | 69 |
| --- | --- | --- | --- | --- | --- | --- | --- | --- | --- |
| Choline anaer gr | i | i | i | i | i | i | i | i | i |
| Choline anaer gr early | 0.75 | 0.59 | 0.02 | 0.92 | 0.74 | 0.18 | 1.2 | 1.4 | -0.97 |

An excerpt; rates above refer to the full screens.
